YB-1 expression: inhibitors of YB-1 gene expression, primary screen, cell-based, fluorescence. U2OS, qRT-PCR YB-1 vs CDIP delta delta Cp, 16 h; hits give high values; zero = DMSO, each unit about twofold. delta delta Cp (YB-1 minus CDIP) (concentration not given with the values). hit rate 0.37% among 30,000. AID 434959, 2010;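 active = delta delta Cp rounded down to an integer at or above 3, about 3 SD of DMSO wells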;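 note: higher means less YB-1 transcript or more CDIP transcript relative to DMSO; stock transfer was 100 nL into about 100 µL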
MITF inhib: inhibitors of MITF, primary screen, MITF inhibitor project, cell-based, luminescence. hit rate 0.28% among 37,000. AID 2240, 2010. inhibition, % (concentration not given with the values). TRPM1 promoter luciferase, 24 h;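 active = most replicates at 85% or more, or half of them and the mean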;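 note: human melanocyte line stably carrying TRPM1 promoter luciferase reporter; 0% = vehicle wells and 100% = a positive control; the first replicate is given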
Hedgehog inh: Hedgehog pathway signaling inhibitors, primary screen, luminescence, Shh-LIGHT2 cells, Gli-luciferase. Shh-LIGHT2 Gli-luciferase reporter, 30 h. inhibition, % (no concentration beside the values). hit rate 2.1% among 22,000. AID 2313, 2010;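 active = replicate mean of 65% or more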;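 note: pathway switched on by Shh-conditioned medium diluted 1 in 25 in low serum; 100 nL library stock added to about 40 µL; 0% = median of neutral wells and 100% = positive control level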
PD-1 reversal: activators reversing PD-1 mediated T-cell inhibition, primary screen, luminescence, primary human CD4 T cells, PD-L1 beads. CellTiter-Glo 96 h. activation, % (test concentration not listed). 29,000 tested, under 10 active. AID 2316, 2010;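 active = replicate mean of 50% or more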;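 note: 0% = median vehicle wells and 100% = positive control; 100 nL library stock added to about 50 µL; numbers are from one replicate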
Active calls of the source: *; / = no result given.

molecule	YB-1 expression	MITF inhib	Hedgehog inh	PD-1 reversal
COc1ccc(NC(=O)N(C)C[C@@H]2Oc3c(NS(=O)(=O)c4ccc(OC)cc4)cccc3C(=O)N([C@H](C)CO)C[C@@H]2C)cc1	0.0475	0.1	-10.0	-1.7
C[C@@H]1CN([C@H](C)CO)C(=O)c2cc(NS(=O)(=O)c3ccc(Cl)cc3)ccc2O[C@H]1CN(C)S(=O)(=O)c1ccccc1	-0.0218	-0.6	5.5	-1.5
C[C@@H]1CN([C@@H](C)CO)C(=O)c2cccc(NC(=O)c3cnccn3)c2O[C@@H]1CN(C)CC1CCCCC1	-0.677	2.4	-98.2	1.0
COc1ccccc1C(=O)N(Cc1nc(-c2cccc(C)c2)no1)C(C)C	/	-0.6	/	1.5
O=C(CSC1=NC(=O)C(c2ccccc2)C(=O)N1)NC1CCCCC1 (stereo not drawn)	-0.341	-2.2	7.4	-0.4
O=C(Cn1cnc2ccccc2c1=O)Nc1ccc(F)cc1F	/	-8.1	/	2.0
C[C@H](CO)N1C[C@H](C)[C@H](CN(C)Cc2ccncc2)Oc2ccc(NS(=O)(=O)c3cccs3)cc2C1=O	-0.19	-10.9	/	/
O=c1[nH]c(=O)n(C2C[C@H](O)[C@@H](CO)O2)cc1C(F)(F)F (stereo partly drawn)	0.276	1.0	-17.2	/
COc1ccc(S(=O)(=O)Nc2ccc3c(c2)C(=O)N([C@@H](C)CO)C[C@@H](C)[C@@H](CN(C)Cc2ccccc2)O3)cc1	-0.0276	5.4	/	/
Cc1ccc(NC(=O)CSc2nnc(C)n2-c2ccc(F)cc2)cc1Cl	/	-12.2	/	0.0
COc1ccc(S(=O)(=O)N(C)C[C@@H]2Oc3ccc(NC(=O)Cn4cnnn4)cc3C(=O)N([C@H](C)CO)C[C@@H]2C)cc1	-0.0334	1.4	-3.1	0.9
C[C@@H]1CCCCO[C@H](CN(C)CC2CCCCC2)[C@@H](C)CN([C@H](C)CO)C(=O)c2cc(NC(=O)c3ccncc3)ccc2O1	6.39*	-1.4	-19.8	-1.9
C[C@@H]1CN([C@H](C)CO)C(=O)Cc2cc(N(C)C)ccc2O[C@H]1CN(C)Cc1ccc(C(=O)Nc2ccccc2N)cc1	-0.258	32.5	/	-1.8
COc1ccc(NC(=O)Nc2ccc3c(c2)CC(=O)N([C@@H](C)CO)C[C@H](C)[C@@H](CN(C)C(=O)Nc2ccccc2)O3)cc1	-0.845	-1.5	15.7	1.4
Cc1cc(Cl)ccc1NC(=O)COc1ccc(C(=O)Nc2ccc(F)cc2)cc1	/	-12.5	/	0.2
Cn1nc(-c2ccc(C(=O)Nc3ccc(Cl)cc3)s2)cc1C(F)(F)F	0.222	37.7	-6.0	-0.2
CCc1cc2c(SCC(N)=O)ncnc2s1	/	-28.9	/	1.9
C(=C\c1nn2c(Cn3cnc4ccccc43)nnc2s1)/c1ccccc1	/	7.5	/	-1.2
C[C@@H]1CN([C@H](C)CO)C(=O)c2cc(N(C)C)ccc2O[C@@H]1CN(C)S(C)(=O)=O	-0.194	-4.6	-9.9	/
Oc1ccc(Br)cc1CNc1nc2ccccc2[nH]1	/	-21.8	/	-1.2
Cc1cccc(OCC(=O)Nc2ccc(C(=O)Nc3ccccc3C(=O)O)cc2)c1	/	1.2	/	0.6
C[C@@H]1CN([C@@H](C)CO)C(=O)Cc2cc(NC(=O)Nc3ccc(F)cc3)ccc2O[C@@H]1CN(C)Cc1ccc(Cl)c(Cl)c1	0.313	29.4	-13.1	-2.6
Cc1cccc(NC(=O)/C=C/c2ccccc2)c1	0.378	14.8	-134.6	0.1
C[C@@H]1CCCCO[C@H](CN(C)C(=O)Nc2ccccc2)[C@@H](C)CN([C@H](C)CO)C(=O)c2cc(NC(=O)Nc3ccccc3)ccc2O1	0.265	19.0	5.3	3.6
C[C@H]1CN([C@@H](C)CO)C(=O)Cc2cc(NC(=O)Nc3ccc4c(c3)OCO4)ccc2O[C@@H]1CN(C)S(=O)(=O)c1ccc(Cl)cc1	-0.169	10.3	-38.8	-0.3
Cc1ccc(C(C)C)c(O)c1C(=O)O	-0.262	9.1	-23.5	/
CCc1ccc(CC(=S)N2CCOCC2)cc1	-0.132	-37.3	-32.1	0.4
CNC[C@@H]1Oc2c(NC(=O)Nc3ccc(F)cc3)cccc2C(=O)N([C@@H](C)CO)C[C@@H]1C	2.21	-10.1	15.5	3.3
C[C@H]1CN([C@@H](C)CO)C(=O)c2cc(N(C)C)ccc2O[C@H]1CN(C)Cc1ccc(C(F)(F)F)cc1	-0.0185	-8.0	-19.3	-1.2
CC(C)(O)C(O)COc1c2ccoc2cc2oc(=O)ccc12 (stereo not drawn)	0.609	-3.2	11.2	-0.5

Next entries follow.
molecule	YB-1 expression	MITF inhib	Hedgehog inh	PD-1 reversal
C[C@H](CO)N1C[C@H](C)[C@@H](CN(C)S(=O)(=O)c2ccc(F)cc2)Oc2c(NS(=O)(=O)c3ccc(F)cc3)cccc2C1=O	-0.444	-5.7	11.4	0.8
C[C@@H]1CN([C@H](C)CO)C(=O)Cc2cc(NC(=O)Nc3ccc(F)cc3)ccc2O[C@H]1CN(C)Cc1ccc(Oc2ccccc2)cc1	0.0779	5.5	-2.6	-1.8
C[C@H](CO)N1C[C@H](C)[C@H](CN(C)Cc2ccc(C(=O)O)cc2)Oc2c(NC(=O)c3cnccn3)cccc2C1=O	-0.443	-1.4	-6.1	1.8
Cc1ccc(S(=O)(=O)N(C)C[C@@H]2Oc3ccc(NC(=O)Cn4cnnn4)cc3CC(=O)N([C@H](C)CO)C[C@@H]2C)cc1	0.17	-5.8	-14.8	1.0
O=C1[C@H](CCC(O)c2ccc(F)cc2)[C@@H](c2ccc(O)cc2)N1c1ccc(F)cc1 (stereo partly drawn)	-0.33	7.6	-35.9	/
C[C@@H]1CN([C@H](C)CO)C(=O)c2cc(NC(=O)NC3CCCCC3)ccc2O[C@H]1CN(C)C(=O)Nc1ccc2c(c1)OCO2	-0.0278	-3.1	-23.2	-0.5
COc1ccc(NC(=O)N(C)C[C@H]2Oc3c(NC(=O)Nc4cccc5ccccc45)cccc3C(=O)N([C@@H](C)CO)C[C@@H]2C)cc1	0.244	1.9	27.8	-2.1
Clc1ccc(Cn2ncc3c(NCc4cccnc4)ncnc32)cc1	/	79.4	/	1.0
Cc1nc2ccc(F)cc2c2c1CCN2c1ccc(Cl)cc1	-0.547	43.7	/	-5.9
C[C@@H]1CN([C@H](C)CO)C(=O)Cc2cc(NC(=O)c3ccncc3)ccc2O[C@@H]1CN(C)Cc1ccccc1	-0.321	3.8	/	/
CC(C)C1CCC(C)C(C(O)c2ccc(-c3ccccc3)cc2)C1=O (stereo not drawn)	-0.685	12.8	/	-1.0
C[C@@H]1CN([C@@H](C)CO)C(=O)c2cc(NC(=O)Nc3ccccc3)ccc2O[C@@H]1CN(C)S(=O)(=O)c1cccs1	0.897	-4.9	/	0.8
O=C(NCc1cccnc1)C(=O)Nc1cccc(Cl)c1Cl	/	-62.6	/	0.9
Cc1ccc(S(=O)(=O)Nc2cccc3c2O[C@H](CN(C)C(=O)Nc2ccc(F)cc2)[C@H](C)CN([C@H](C)CO)C3=O)cc1	-0.481	-7.1	55.3	-3.3
COC(=O)c1c(NC(=O)C(C)Oc2ccc(F)cc2)sc(C(C)=O)c1C (stereo not drawn)	/	23.5	/	-11.2
COc1ccc(S(=O)(=O)N(C)CC(=O)Nc2ccc(F)c(Cl)c2)cc1C	/	22.1	/	1.8
O=C(O)c1ccc(NS(=O)(=O)c2ccc3c4c(cccc24)C(=O)N3)cc1	-0.206	-5.3	-9.2	0.7
COc1ccc(S(=O)(=O)Nc2cccc3c2O[C@@H](CN(C)S(=O)(=O)c2ccc(F)cc2)[C@H](C)CN([C@H](C)CO)C3=O)cc1	-0.226	-5.4	-28.6	/
C[C@@H]1CN([C@@H](C)CO)C(=O)Cc2cc(NS(=O)(=O)c3ccc(F)cc3)ccc2O[C@@H]1CN(C)C(=O)Nc1ccc2c(c1)OCO2	0.303	7.0	-27.0	0.1
COc1ccc(S(=O)(=O)N(C)C[C@@H]2Oc3c(NC(=O)CCCCCC(=O)Nc4ccccc4N)cccc3C(=O)N([C@H](C)CO)C[C@H]2C)cc1	-0.00819	6.7	/	1.4
COC(=O)c1cc(Br)ccc1NC(=O)COc1ccc(Cl)cc1C	/	22.2	/	-7.8
Cc1ccc(S(=O)(=O)N(C)C[C@@H]2Oc3ccc(NC(=O)Cc4ccccc4)cc3C(=O)N([C@@H](C)CO)C[C@H]2C)cc1	-0.367	9.3	7.1	-1.7
C[C@@H]1CN([C@@H](C)CO)C(=O)c2cc(NC(=O)C3CC3)ccc2O[C@H]1CN(C)C(=O)Nc1cccc2ccccc12	0.136	-0.9	0.8	-1.0
O=S(=O)(c1ccccc1)N1CCN(c2ccccc2)CC1	-0.113	10.6	-17.7	1.4
Cc1cc([N+](=O)[O-])nn1CC(=O)Nc1cc(F)ccc1F	/	7.0	/	-2.8
C[C@H]1CN([C@@H](C)CO)C(=O)c2cccc(NS(=O)(=O)c3cccs3)c2O[C@@H]1CN(C)Cc1ccc(C(=O)O)cc1	0.187	7.2	-16.1	1.9
O=c1c2ccccc2n(Cc2ccc(Cl)cc2)c(=O)n1Cc1ccc(Cl)cc1	0.0873	-13.2	/	0.2
COc1ccc2nc3c(nc2c1)-c1cccc2cccc-3c12	0.144	-8.9	-43.9	1.0
COc1cccc2cc(C(=O)C3C(=O)C(=O)N(CCN4CCOCC4)C3c3cccc(Br)c3)oc12 (stereo not drawn)	/	-11.3	/	-1.5
O=C(CSC1CC(=O)N(c2ccc(I)cc2)C1=O)Nc1cccc(F)c1 (stereo not drawn)	/	-7.1	/	-1.2

Random excerpt: 2 entries already listed
molecule	YB-1 expression	MITF inhib	Hedgehog inh	PD-1 reversal
C[C@@H]1CN([C@H](C)CO)C(=O)c2cc(NC(=O)NC3CCCCC3)ccc2O[C@H]1CN(C)C(=O)Nc1ccc2c(c1)OCO2	-0.0278	-3.1	-23.2	-0.5
C[C@@H]1CN([C@H](C)CO)C(=O)Cc2cc(NC(=O)c3ccncc3)ccc2O[C@@H]1CN(C)Cc1ccccc1	-0.321	3.8	/	/

Next entries follow.
molecule	YB-1 expression	MITF inhib	Hedgehog inh	PD-1 reversal
CNC1CCc2cc(OC)c(OC)c(OC)c2-c2ccc(OC)c(=O)cc21 (stereo not drawn)	-0.783	32.5	91.5*	-21.4
C[C@@H]1CN([C@H](C)CO)C(=O)c2cc(NC(=O)Nc3ccc(F)cc3)ccc2O[C@H]1CN(C)Cc1ccc2c(c1)OCO2	-0.539	-9.5	/	1.9
CC(C)NC(=O)N(C)C[C@H]1Oc2ccc(NC(=O)c3ccncc3)cc2CC(=O)N([C@@H](C)CO)C[C@@H]1C	-0.603	-3.3	/	0.0
Cc1noc(C)c1S(=O)(=O)Nc1ccc2c(c1)C(=O)N([C@@H](C)CO)C[C@H](C)[C@@H](CN(C)C(=O)Nc1ccc(F)cc1)O2	-0.00671	-5.7	/	-0.5
C[C@@H]1CN([C@H](C)CO)C(=O)Cc2cc(N(C)C)ccc2O[C@H]1CN(C)Cc1ccc(C(F)(F)F)cc1	0.237	-13.9	-10.8	/
N#CC1=C(N)Nc2c(c(=O)oc3ccccc23)C1c1ccc(Br)cc1 (stereo not drawn)	-0.4	25.1	72.4*	-4.2
CC(C)NC(=O)N(C)C[C@H]1OCCCC[C@@H](C)Oc2ccc(NC(=O)Nc3ccccc3)cc2C(=O)N([C@H](C)CO)C[C@@H]1C	-0.18	-7.8	-15.8	/
Cc1cc(C(=O)Nc2cccc3c2O[C@@H](CN(C)S(=O)(=O)c2ccccc2)[C@H](C)CN([C@@H](C)CO)C3=O)n(C)n1	-0.057	-4.1	-27.7	/
COc1ccc(NC(=O)N(C)C[C@H]2Oc3c(NS(=O)(=O)c4ccc(OC)cc4)cccc3C(=O)N([C@H](C)CO)C[C@@H]2C)cc1	-0.137	2.8	-3.9	2.3
COc1cc(OC)c(C(=O)c2ccc(O)cc2)c(OC)c1	-0.0508	7.1	-14.3	/
Cc1noc(C)c1NC(=O)N(C)C[C@H]1Oc2ccc(NC(=O)NC(C)C)cc2C(=O)N([C@H](C)CO)C[C@@H]1C	0.000938	6.6	22.9	1.2
COc1ccc(C(=O)Nc2ccccc2)cc1S(=O)(=O)NCc1ccco1	/	0.6	/	-1.5
C[C@H]1CN([C@@H](C)CO)C(=O)Cc2cc(NC(=O)NC3CCCCC3)ccc2O[C@@H]1CN(C)S(=O)(=O)c1cn(C)cn1	-0.349	0.9	-33.0	1.6
COC(=O)c1ccccc1NC(=O)CNS(=O)(=O)c1cc(Cl)ccc1Cl	/	8.1	/	-0.7
CC(C)(O)C(O)COc1c2occc2cc2ccc(=O)oc12 (stereo not drawn)	0.477	-25.0	-24.7	0.7
CN(C)CCNc1cc(-c2cccnc2)nc2ccccc12	-0.123	5.7	15.2	-0.2
C[C@H](CO)N1C[C@H](C)[C@@H](CN(C)CC2CC2)Oc2ccc(NS(=O)(=O)c3cccs3)cc2C1=O	-0.0502	3.7	7.3	0.1

Screening data: PubChem BioAssay, Broad Institute

These rows are one share of the data; rates above refer to the full screens.
